Screening data from PubChem.
Six1-Eya2 inh – Six1/Eya2 interaction inhibition; Q15475+O00167; AlphaScreen GST-Six1/His-Eya2 binding, biochemical; stronger effect = lower value; control for the full effect not named in the record; activity change, % (concentration not given with the values); hit rate 0.56% among 360,000; AID 651725; in the data active = activity change below about -65%; inconclusive = about -30% to -65%; inactive = above about -30%; also: % is scaled to controls: 0 for no effect and ±100 for the full control effect
Target sequence (O00167 whole entry, looked up): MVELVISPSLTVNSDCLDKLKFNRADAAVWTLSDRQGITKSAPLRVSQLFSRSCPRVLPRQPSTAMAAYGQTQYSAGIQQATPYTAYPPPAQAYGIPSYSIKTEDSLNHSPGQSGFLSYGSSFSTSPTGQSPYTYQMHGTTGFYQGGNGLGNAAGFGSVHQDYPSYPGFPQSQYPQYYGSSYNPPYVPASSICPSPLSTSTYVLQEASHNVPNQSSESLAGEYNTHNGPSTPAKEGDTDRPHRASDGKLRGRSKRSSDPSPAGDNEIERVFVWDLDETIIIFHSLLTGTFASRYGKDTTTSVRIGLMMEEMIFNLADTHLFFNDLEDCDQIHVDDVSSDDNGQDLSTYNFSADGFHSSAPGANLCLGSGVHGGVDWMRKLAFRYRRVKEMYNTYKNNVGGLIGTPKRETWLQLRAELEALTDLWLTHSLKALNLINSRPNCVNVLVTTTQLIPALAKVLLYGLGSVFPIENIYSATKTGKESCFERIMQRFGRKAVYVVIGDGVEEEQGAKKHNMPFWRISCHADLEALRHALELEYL
Target sequence (Q15475 whole entry, looked up): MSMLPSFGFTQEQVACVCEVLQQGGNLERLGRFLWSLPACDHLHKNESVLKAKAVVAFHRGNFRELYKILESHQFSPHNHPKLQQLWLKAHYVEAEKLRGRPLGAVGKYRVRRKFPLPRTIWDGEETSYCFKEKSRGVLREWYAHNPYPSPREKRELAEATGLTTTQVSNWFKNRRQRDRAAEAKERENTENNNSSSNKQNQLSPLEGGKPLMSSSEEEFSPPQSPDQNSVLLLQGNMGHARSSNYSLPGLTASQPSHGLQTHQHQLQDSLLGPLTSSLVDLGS
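Compounds are tested against tagged Six1 and Eya2 proteins bridged by glutathione donor and nickel acceptor beads; after a one-hour incubation at 37 °C without light, AlphaScreen emission is recorded.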
CtBP-E1A blk – inhibitors of CtBP/E1A interaction; AlphaScreen GST-E1A/His-CtBP binding, 1536-well; stronger effect = lower value; control for the full effect not named in the record; activity change, % (no concentration beside the values); hit rate 0.49% among 340,000; in the data active means activity change below about -65%; inconclusive means about -30% to -65%; inactive means above about -30%; also: % is scaled to controls: 0 for no effect and ±100 for the full control effect; compound concentration not given in the record
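Homogeneous bead-based format: GST-tagged E1A captured on glutathione donor beads, His-tagged CtBP on nickel acceptor beads; compounds precede bead addition by 2 h at 37 °C.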
gsp antagonist – antagonists of gsp mutant (McCune-Albright syndrome) | hit rate 0.4% among 340,000 | AID 624288 | Potency, µM (series often up to 76.9 µM), for inactives: at the top dose activity change, negative = inhibition, most hits filed as inhibitors | gsp-mutant cells, cAMP HTRF, 30 min; control for the full effect not named in the record; active = falling curve of any shape with a large fitted effect; inconclusive = falling curve, mostly with a smaller effect; inactive = flat or rising curve; cell line not stated here;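 also: intracellular cAMP measured with PDE inhibitor Ro 20-1724 present during compound exposure; potency is read from the fitted curve at half-maximal effect; % is scaled to controls: 0 for no effect and ±100 for the full control effect; nearly all actives have a fitted effect of over 65% in size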
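HTRF cAMP read-out (cAMP-d2 plus anti-cAMP antibody-K in lysis buffer, 30 min RT). Before lysis, cells are exposed to compounds with […] for 30 min at 37C in DPBS containing Ca/Mg, BSA and Tween 20.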
D2 PAM – positive allosteric modulators of human D2 dopamine receptor; DiscoveRx D2 beta-arrestin cells, luminescence, 90 min; 100% = 57 uM dopamine signal; potentiation, % (test concentration not listed); hit rate 0.23% among 360,000; AID 624464; active = potentiation of 50% or more; inconclusive = 30% to 50%; inactive = 30% or less;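 also: compound concentration not given in the record; tested on top of an EC20 dose of dopamine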
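D2 cells co-treated with compound plus 50 nM dopamine (EC20) for 90 min at 37 deg C to detect potentiation. Beta-arrestin recruitment was read as enzyme-fragment luminescence after 1 h at ambient temperature. Full response was set by 57 uM dopamine.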
D2 ag – agonists of human D2 dopamine receptor (beta-arrestin) | AID 624465 | hit rate 0.084% among 360,000 | activation, % (test concentration not listed) | DiscoveRx PathHunter D2 beta-arrestin, luminescence, 90 min; 100% = 57 uM dopamine signal; in the data active = activation above about 40%; inconclusive = about 15% to 40%; inactive = below about 15%; also: compound concentration not given in the record; the text of the record calls up to 30% inactive
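DiscoveRx PathHunter D2 beta-arrestin cells (2,100/well) attached overnight, then compound-stimulated 90 min at 37 C in HBSS/10 mM HEPES/0.1% Tween-20 buffer; beta-galactosidase complementation read by luminescence after 1 h at ambient temperature. Dopamine 57 uM final (EC100) as control.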
gsp agonist – gsp mutant agonism | Potency, µM (series often up to 76.9 µM), for inactives: at the top dose activation (cAMP increase), usual class: activators | hit rate 0.13% among 340,000 | gsp mutant cells, cAMP HTRF, 30 min; control for the full effect not named in the record | AID 624287; active = well fitted activation curve with a large enough effect; inconclusive = small, poorly fitted or top-dose-only effect, or another doubt; inactive = no such curve, though single readings can be large or run the other way; cell line not stated here;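 also: phosphodiesterase inhibitor Ro 20-1724 added with compounds to block cAMP breakdown; potency is read from the fitted curve at half-maximal effect; nearly all actives have a fitted effect of over 60% in size; about a fifth of the inactives were tested at one dose only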
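Cells stably selected in G418 were plated at 2000/well, grown 16-24 hr, then given compounds in DMSO with the PDE inhibitor […] (300 uM solution added) for 30 min at 37C; cAMP was read by HTRF.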
* = called active by the depositor; [ ] = another dose, or the depositor's remark.

How did Cn1c(=O)c2cc(S(=O)(=O)NCCC(=O)NC3CCCCCCC3)ccc2n(C)c1=O do in these assays?
Six1-Eya2 inh: inconclusive; CtBP-E1A blk: inconclusive; gsp antagonist: -19%; D2 PAM: -6; D2 ag: -2.3; gsp agonist: -7%

What do the screens show for `Nn1c(SCC(=O)NC2CCCC2)nnc1C(F)(F)F`?
Six1-Eya2 inh: 0; CtBP-E1A blk: 1; D2 PAM: -9; D2 ag: -3.0; gsp agonist: 20%

How did CCOc1cc(C=O)cc(Br)c1OCC(=O)NCCc1ccccc1 do in these assays?
Six1-Eya2 inh: 4; CtBP-E1A blk: 9; gsp antagonist: inconclusive; D2 PAM: -3; D2 ag: -0.9; gsp agonist: inconclusive

How did O=C(O)/C=C/C(=O)N1CCN(S(=O)(=O)c2cc(C(F)(F)F)ccc2Cl)CC1 do in these assays?
Six1-Eya2 inh: 3; CtBP-E1A blk: 0; gsp antagonist: 4%; D2 PAM: 0; D2 ag: -3.8; gsp agonist: 28%

Results for O=C(CN(Cc1ccco1)C(=O)CNS(=O)(=O)c1ccc(F)cc1)NCc1ccccc1 ?
Six1-Eya2 inh: 8; CtBP-E1A blk: -5; gsp antagonist: 2%; D2 PAM: -5; D2 ag: -5.9; gsp agonist: 18%

Results for C#CCOCCOCCOCCNc1nc(N2CCN(C(=O)[C@H](CCCCN)n3cc([C@@H](N)CO)nn3)CC2)nc(N2CCN(C(=O)[C@H](Cc3ccc(O)cc3)n3cc([C@@H](N)CC(C)C)nn3)CC2)n1 ?
Six1-Eya2 inh: -23; CtBP-E1A blk: -20; gsp antagonist: -1%; D2 PAM: -11; D2 ag: -2.3; gsp agonist: 12%

Results for Nc1ccc(C23CC4CC(CC(O)(C4)C2)C3)cc1 ?
Six1-Eya2 inh: 2; CtBP-E1A blk: -1; gsp antagonist: 3%; D2 PAM: 4; D2 ag: -0.2; gsp agonist: 12%

How did CC(=O)c1cccc(NC(=O)CN2C(=O)C3C4C=CC(C4)C3C2=O)c1 (stereo not given) do in these assays?
Six1-Eya2 inh: 4; CtBP-E1A blk: -10; gsp antagonist: 6%; D2 PAM: -4; D2 ag: -2.8; gsp agonist: 18%

Results for O=C(c1ccccc1F)N1CCN(c2ncccn2)CC1 ?
Six1-Eya2 inh: 2; CtBP-E1A blk: 4; gsp antagonist: 11%; D2 PAM: -17; D2 ag: -2.9; gsp agonist: 20%

What do the screens show for `O=C1CC(NS(=O)(=O)c2cccs2)CN1c1ccc(Cl)cc1` (stereo not given)?
Six1-Eya2 inh: 8; CtBP-E1A blk: -16; gsp antagonist: -7%; D2 PAM: 6; D2 ag: 1.2; gsp agonist: 4%[15.4 µM]

Results for COc1ccc2ccccc2c1C(=O)/C=C\c1ccoc1 ?
Six1-Eya2 inh: 3; CtBP-E1A blk: 12; gsp antagonist: -7%; D2 PAM: -22; D2 ag: -0.7; gsp agonist: 18%

What do the screens show for `Cc1ccc(C)c(NC(=S)c2ccc3ccccc3n2)c1`?
Six1-Eya2 inh: inconclusive; CtBP-E1A blk: inconclusive; gsp antagonist: 6%; D2 PAM: -14; D2 ag: -6.4; gsp agonist: -5%

How did Cn1c2c(c(=O)n(C)c1=O)C(NC(=O)c1ccco1)(C(F)(F)F)C(=O)N2 (stereo not given) do in these assays?
Six1-Eya2 inh: -3; CtBP-E1A blk: 6; gsp antagonist: 3%; D2 PAM: -13; D2 ag: -3.3; gsp agonist: -27%

What do the screens show for `Cc1cc(-c2nnc(CCC(=O)N(C)CCc3ccccc3)o2)no1`?
Six1-Eya2 inh: 0; CtBP-E1A blk: 6; gsp antagonist: 4%; D2 PAM: -10; D2 ag: -3.1; gsp agonist: 1%

What do the screens show for `CC(C)(C)c1ccc(COn2ccnc2)cc1`?
Six1-Eya2 inh: 7; gsp antagonist: -3%; D2 PAM: -11; D2 ag: -0.8; gsp agonist: -14%

The closing 3 records of the section before are carried over, then new ones follow.
How did Cn1c2c(c(=O)n(C)c1=O)C(NC(=O)c1ccco1)(C(F)(F)F)C(=O)N2 (stereo not given) do in these assays?
Six1-Eya2 inh: -3; CtBP-E1A blk: 6; gsp antagonist: 3%; D2 PAM: -13; D2 ag: -3.3; gsp agonist: -27%

What do the screens show for `Cc1cc(-c2nnc(CCC(=O)N(C)CCc3ccccc3)o2)no1`?
Six1-Eya2 inh: 0; CtBP-E1A blk: 6; gsp antagonist: 4%; D2 PAM: -10; D2 ag: -3.1; gsp agonist: 1%

What do the screens show for `CC(C)(C)c1ccc(COn2ccnc2)cc1`?
Six1-Eya2 inh: 7; gsp antagonist: -3%; D2 PAM: -11; D2 ag: -0.8; gsp agonist: -14%

What do the screens show for `O=C(CSc1nc(-c2ccc(F)cc2)cs1)NC(=O)NCc1ccco1`?
Six1-Eya2 inh: -7; CtBP-E1A blk: 0; gsp antagonist: -8%; D2 PAM: -6; D2 ag: 0.6; gsp agonist: -34%[inhibitor]

Results for COc1ccc(CCNC(=O)CCN2C(=O)C(C)Oc3ccc(C)cc32)cc1OC (stereo not given) ?
Six1-Eya2 inh: 15; CtBP-E1A blk: 22; gsp antagonist: -4%; D2 PAM: -17; D2 ag: -3.1; gsp agonist: 20%

Results for COc1ccccc1NC(=O)COn1nnc2ccc(S(=O)(=O)N3CCOCC3)cc21 ?
Six1-Eya2 inh: -1; CtBP-E1A blk: 7; gsp antagonist: -14%; D2 PAM: -6; D2 ag: 1.7; gsp agonist: -1%[15.4 µM]

Results for Cc1ccc(NC(=O)CNC(=O)C2CCCCC2)nc1 ?
Six1-Eya2 inh: -2; CtBP-E1A blk: 7; gsp antagonist: 3%; D2 PAM: 6; D2 ag: -4.0; gsp agonist: 1%[15.4 µM]

What do the screens show for `CC(OC(=O)c1cccc(-n2cnnn2)c1)C(=O)Nc1ccccc1F` (stereo not given)?
Six1-Eya2 inh: 2; CtBP-E1A blk: -14; gsp antagonist: 0%; D2 PAM: -31; D2 ag: -4.5; gsp agonist: -8%[15.4 µM]

How did C/C(CC(=O)Nc1ccc2c(c1)OCCO2)=N\NC(=O)COc1ccccc1C do in these assays?
Six1-Eya2 inh: -5; CtBP-E1A blk: -8; gsp antagonist: 4%; D2 PAM: -8; D2 ag: -0.5; gsp agonist: 14%

How did O=C(O)C1CC(c2cccc(Br)c2)=NO1 (stereo not given) do in these assays?
Six1-Eya2 inh: 4; CtBP-E1A blk: -3; gsp antagonist: 8%; D2 PAM: -5; D2 ag: -1.2; gsp agonist: -21%

What do the screens show for `O=C(/C=C\c1ccco1)Oc1cccc2cccnc12`?
Six1-Eya2 inh: -76*; CtBP-E1A blk: -74*; gsp antagonist: -12%; D2 PAM: 3; D2 ag: -1.0; gsp agonist: 20%[15.4 µM]

How did Cc1ccccc1OCC(=O)Nc1ccc(N2CCN(C(=O)C(C)C)CC2)c(Cl)c1 do in these assays?
Six1-Eya2 inh: 0; CtBP-E1A blk: -15; gsp antagonist: 32µM*; D2 PAM: 13; D2 ag: 6.8; gsp agonist: 5%

How did COc1cccc2cc(C(=O)CS(=O)(=O)c3ccc(C)cc3)c(=O)oc12 do in these assays?
Six1-Eya2 inh: -2; gsp antagonist: -17%; D2 PAM: 0; D2 ag: -2.3; gsp agonist: -20%

How did CCC(C)(C)NC(=S)Nc1ccccc1C do in these assays?
Six1-Eya2 inh: 4; CtBP-E1A blk: 4; gsp antagonist: 8%; D2 PAM: -4; D2 ag: -6.8; gsp agonist: 3%

How did O=C(Cn1cnc2c(nnn2-c2cccc(Cl)c2)c1=O)N1CCCC1 do in these assays?
Six1-Eya2 inh: 0; CtBP-E1A blk: 12; gsp antagonist: 11%; D2 PAM: 7; D2 ag: 0.8; gsp agonist: inconclusive

What do the screens show for `O=C(NCc1ccccc1Cl)c1[nH]c(C(F)(F)F)nc1-c1ccccc1`?
Six1-Eya2 inh: -18; CtBP-E1A blk: -9; D2 PAM: -1; D2 ag: 0.5

Results for O=C(C1CCC(CNc2c(N3CCCCC3)c(=O)c2=O)CC1)N1CCN(c2ccccn2)CC1 (stereo not given) ?
Six1-Eya2 inh: 9; CtBP-E1A blk: -9; gsp antagonist: 2%; D2 PAM: -7; D2 ag: -3.4; gsp agonist: -21%

What do the screens show for `Cc1ccc(Sc2ncccc2C(=O)NCc2cc([N+](=O)[O-])ccc2O)c(C)c1`?
Six1-Eya2 inh: -21; CtBP-E1A blk: -29; gsp antagonist: inconclusive; D2 PAM: -12; D2 ag: -1.8; gsp agonist: 19%

What do the screens show for `COc1cc(C(=O)OCC(=O)Nc2c(F)c(F)c(F)c(F)c2F)cc(OC)c1OC`?
Six1-Eya2 inh: 9; CtBP-E1A blk: 2; gsp antagonist: 5%; D2 PAM: -4; D2 ag: -0.4; gsp agonist: 26%

Results for O=C(Cn1[nH]c(=O)c2ccccc2c1=O)OCC(=O)N1CCCc2ccccc21 ?
Six1-Eya2 inh: 0; CtBP-E1A blk: -1; gsp antagonist: 9%; D2 PAM: -6; D2 ag: -3.1; gsp agonist: -12%

How did COc1ccccc1OCC(=O)OCC(=O)NC1CCCCC1 do in these assays?
Six1-Eya2 inh: 1; CtBP-E1A blk: 11; gsp antagonist: 11%; D2 PAM: -6; D2 ag: 0.1; gsp agonist: -6%

Results for O=C(NCc1cccnc1)C(=O)Nc1nc(C23CC4CC(CC(C4)C2)C3)cs1 ?
Six1-Eya2 inh: -5; CtBP-E1A blk: -20; gsp antagonist: inconclusive; D2 PAM: -17; D2 ag: -4.6; gsp agonist: -34%[inhibitor]

Results for COc1cc(OC)cc(-c2oc3cccnc3c2C#CCCO)c1 ?
Six1-Eya2 inh: inconclusive; gsp antagonist: -8%; D2 PAM: -6; D2 ag: -1.7; gsp agonist: 3%

Results for CC(C)CN(C(=O)CSc1nc(-c2ccccc2)cn1N)c1c(N)n(Cc2ccccc2)c(=O)[nH]c1=O ?
Six1-Eya2 inh: -1; CtBP-E1A blk: 9; gsp antagonist: 4%; D2 PAM: 2; D2 ag: 0.8; gsp agonist: -1%

How did CC(C)c1ccc(S(=O)(=O)c2cnc(=S)[nH]c2N)cc1 do in these assays?
Six1-Eya2 inh: 7; CtBP-E1A blk: 4; gsp antagonist: 2%; D2 PAM: -7; D2 ag: 4.1; gsp agonist: -22%[15.4 µM]

Results for Clc1ccc2nc(CSc3ccccc3)cn2c1 ?
Six1-Eya2 inh: -2; CtBP-E1A blk: -18; gsp antagonist: 12%; D2 PAM: -12; D2 ag: -2.9; gsp agonist: 7%[15.4 µM]

What do the screens show for `CCc1c(C)nc2ncnn2c1N1CCCC(C(=O)NCCc2ccc(OC)cc2)C1` (stereo not given)?
Six1-Eya2 inh: -2; CtBP-E1A blk: 4; gsp antagonist: -8%; D2 PAM: -7; D2 ag: 1.3; gsp agonist: -9%

How did COc1ccc(S(=O)(=O)N(CC(=O)N2CCCCCC2)c2ccccc2OC)cc1 do in these assays?
Six1-Eya2 inh: -5; CtBP-E1A blk: 0; gsp antagonist: -13%; D2 PAM: -7; D2 ag: -3.5; gsp agonist: inconclusive
